HBB splice mod: qHTS Assay for Modulators of Hemoglobin Beta Chain Splicing | 65,000 tested, 0.06% active | HBB splicing reporter cell assay, activation; EGFP reporter with mutant IVS2-654 intron; response scale: normalised to 500 nM splice-correcting PNA | Potency, µM (doses to about 46.1 µM), for inactives: top-dose activation, hits mostly activators | AID 925, 2007; also: potency is read from the fitted curve at half-maximal effect; 0% is about no effect
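HeLa cells stably expressing EGFP interrupted by mutant beta-globin intron 2 (IVS2-654), 500/well in 2% FCS. Treated with compound for 2 days at 37C. Splicing correction scored as total well GFP intensity (488 nm excitation, 500-520 nm emission); 500 nM antisense PNA served as control.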
Rhodamine autofl: qHTS Assay for Spectroscopic Profiling in Rhodamine Spectral Region; max dye-equivalent concentration, M; 59,000 tested, 0.05% active; Rhodamine-region fluorescence, 547/598 nm, Tris buffer; active compounds read high; in the data active = max dye-equivalent concentration above about 11 nM; inconclusive = between about 1.1 nM and that limit
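Compound fluorescence in 100 mM Tris, pH 8.0, read after 15 min at room temperature with 547 nm excitation and 598 nm emission. Output is dye-equivalent concentration from an on-plate rhodamine standard series.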
Pol III holo inh: qHTS Assay for Inhibitors of DNA Polymerase III Holoenzyme System | reconstituted DNA polymerase III holoenzyme replication, biochemical | Potency, µM (titrated, usually from 57.1 µM), for inactives: at the top dose activity change, negative = inhibition | AID 603, 2007 | 71,000 tested, 0.25% active; also: potency is read from the fitted curve at half-maximal effect; % is scaled to controls: 0 for no effect and ±100 for the full control effect
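Reconstituted *E. coli* holoenzyme (0.35 nM Pol III, 1 nM beta, 154 nM SSB, 2 nM primase) was preincubated with compound for 15 min at RT. Synthesis on 1.4 nM ssM13Gori ran 35 min, then was stopped with PicoGreen/EDTA and read as dsDNA fluorescence.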
Tau fil binding: qHTS Assay for Tau Filament Binding; Microtubule-associated protein tau (Homo sapiens), P10636; recombinant tau filaments, thioflavin S fluorescence, 15 h; filaments grown with octadecylsulfate alongside compound; Potency, µM (titrated, usually from 57.1 µM), without a hit: at the top dose activity change, negative = inhibition; 71,000 tested, 2% active; AID 596, 2007;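 also: potency is read from the fitted curve at half-maximal effect; % is scaled to controls: 0 for no effect and ±100 for the full control effect; actives lower thioflavin S fluorescence by blocking filaments or displacing dye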
Target sequence (P10636 whole entry, looked up): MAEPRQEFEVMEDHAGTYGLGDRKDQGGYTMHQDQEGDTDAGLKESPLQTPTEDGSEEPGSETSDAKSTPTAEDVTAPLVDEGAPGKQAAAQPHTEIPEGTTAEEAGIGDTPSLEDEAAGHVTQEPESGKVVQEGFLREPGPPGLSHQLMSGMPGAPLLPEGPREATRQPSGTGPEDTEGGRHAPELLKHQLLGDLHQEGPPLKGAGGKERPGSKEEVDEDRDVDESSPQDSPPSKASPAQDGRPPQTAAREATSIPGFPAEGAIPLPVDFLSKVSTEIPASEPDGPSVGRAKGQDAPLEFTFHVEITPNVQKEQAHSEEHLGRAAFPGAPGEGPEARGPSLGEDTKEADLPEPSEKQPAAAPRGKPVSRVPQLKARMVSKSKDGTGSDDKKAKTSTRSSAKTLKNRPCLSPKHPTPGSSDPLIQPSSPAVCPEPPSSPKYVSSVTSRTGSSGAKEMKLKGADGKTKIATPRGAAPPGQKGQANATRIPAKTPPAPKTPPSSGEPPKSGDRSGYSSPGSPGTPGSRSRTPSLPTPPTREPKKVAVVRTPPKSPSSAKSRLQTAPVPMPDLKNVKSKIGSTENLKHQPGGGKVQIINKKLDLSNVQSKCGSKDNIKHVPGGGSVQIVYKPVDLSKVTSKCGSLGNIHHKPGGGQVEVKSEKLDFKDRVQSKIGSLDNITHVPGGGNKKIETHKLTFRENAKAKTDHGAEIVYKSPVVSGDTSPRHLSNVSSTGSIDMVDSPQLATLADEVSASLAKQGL
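Read-out: ThS fluorescence, 450 nm excitation/510 nm emission; lower signal marks blocked filament formation or displaced dye. Tau at 1 uM with 30 uM ODS, 10 uM ThS, 5 mM DTT, 100 mM NaCl, 10 mM HEPES pH 7.4; 15 h, 37 C.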
HADH2 inhib: qHTS Assay for Inhibitors of HADH2 (Hydroxyacyl-Coenzyme A Dehydrogenase, Type II); 3-hydroxyacyl-CoA dehydrogenase type-2 (Homo sapiens), Q99714; recombinant HADH2, NADH fluorescence, beta-hydroxybutyryl-CoA; Potency, µM (series often up to 57.1 µM), without a hit: top-dose activity change, negative = inhibition, actives largely listed as inhibitors; 73,000 tested, 3.4% active; AID 886, 2007; also: potency is read from the fitted curve at half-maximal effect; % is scaled to controls: 0 for no effect and ±100 for the full control effect; nearly all actives have a fitted effect of over 60% in size; many of its hits are not listed in these tables
Target sequence (Q99714 whole entry, looked up, one chain of several): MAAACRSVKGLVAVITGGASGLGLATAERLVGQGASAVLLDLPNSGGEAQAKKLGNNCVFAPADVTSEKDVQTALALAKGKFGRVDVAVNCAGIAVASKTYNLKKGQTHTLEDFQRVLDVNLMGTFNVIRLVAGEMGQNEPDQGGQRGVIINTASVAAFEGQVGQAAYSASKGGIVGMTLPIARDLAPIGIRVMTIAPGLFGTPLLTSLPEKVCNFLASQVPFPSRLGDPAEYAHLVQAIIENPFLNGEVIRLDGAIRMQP
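Read-out: 360 nm excitation, 450 nm emission, kinetic over 4 min. Conditions: His-tagged human HADH2 20 nM, pH 9.0 Tris with Tween-20, 1 mM NAD+, 90 uM beta-hydroxybutyryl-CoA.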
ALOX15 inhib: qHTS Assay for Inhibitors of 15-hLO (15-human lipoxygenase); Polyunsaturated fatty acid lipoxygenase ALOX15 (Homo sapiens), P16050; purified 15hLO-1, xylenol orange hydroperoxide absorbance; Potency, µM (series often up to 57.1 µM), without a hit: top-dose activity change, negative = inhibition, usual class: inhibitors; 74,000 tested, 1.4% active; AID 887, 2007; also: potency is read from the fitted curve at half-maximal effect; % is scaled to controls: 0 for no effect and ±100 for the full control effect; nearly all actives have a fitted effect of over 55% in size
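Purified human 15hLO-1 (40 nM) in 25 mM Hepes pH 7.5, 0.01% Triton X-100, preincubated 15 min RT with compound, then 50 uM arachidonic acid for 6 min. Hydroperoxide read by ferrous/xylenol orange, 30 min; 573/405 nm absorbance ratio gave progress.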
Texas Red fluor: qHTS Assay for Spectroscopic Profiling in Texas Red Spectral Region. Compound fluorescence, Texas Red channel, 547/618 nm; active compounds read high. max dye-equivalent concentration, M. 59,000 tested, 0.06% active. AID 587, 2007; in the data active = max dye-equivalent concentration above about 10 nM; inconclusive = between about 1.1 nM and that limit
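Pin-transferred compounds and Texas Red standards go into 100 mM Tris buffer, pH 8.0. After 15 min at room temperature, plates are imaged with 547/618 nm filters. Each value is a dye-equivalent concentration derived from the per-plate dye curve.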
ERK AVP inh: qHTS Assay for Inhibitors of the ERK Signaling Pathway using a Homogeneous Screening Assay; HEK293-V1b, vasopressin-stimulated pERK AlphaScreen; Potency, µM (titrated, usually from 57.5 µM), inactives show at the top dose activity, negative = inhibition, actives largely listed as inhibitors; 72,000 tested, 0.99% active; also: potency is read from the fitted curve at half-maximal effect; % is scaled to controls: 0 for no effect and ±100 for the full control effect; nearly all actives have a fitted effect of over 55% in size
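V1b-HEK293 cells; cpd 30 min 37C; 25 nM vasopressin 5 min; lyse 10 min; AlphaScreen beads 5 hr RT. Normalized to DMSO basal and 25 nM vasopressin; AC50 by Hill fit.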
FLuc inh: qHTS Assay for Inhibitors of Firefly Luciferase; purified firefly luciferase, luminescence, 8 min; Potency, µM (titrated, usually from 57.1 µM), without a hit: at the highest dose activity change, negative = inhibition, actives largely listed as inhibitors; 72,000 tested, 2.2% active; Luciferin 4-monooxygenase (Photinus pyralis), P08659; also: potency is read from the fitted curve at half-maximal effect; % is scaled to controls: 0 for no effect and ±100 for the full control effect; nearly all actives have a fitted effect of over 40% in size
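Firefly luciferase (PKLight detection mix) with 10 uM ATP in pH 7.2 imidazole buffer (KCl, MgCl2, Tween 20, BSA). Compounds tested across a concentration series (qHTS). Luminescence read after 8 min at ambient temperature.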
CRE-bla Fsk: Cell signaling CRE-BLA (Fsk stim); CHO CRE-bla reporter (cAMP response element driving beta-lactamase), forskolin EC10, beta-lactamase ratio; Potency, µM (doses to about 38.2 µM), for inactives: at the top dose activity change, negative = inhibition, usual class: activators; 71,000 tested, 2.5% active; AID 662, 2007; active = well fitted activation curve with a large enough effect in the signal ratio, with a control signal flat, not every such curve was filed as active; inconclusive = small, poorly fitted or top-dose-only effect, or effect the other way, or a change in a side signal; the % refers to the signal ratio; also: potency is read from the fitted curve at half-maximal effect; % of control where 0% means no effect
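Beta-lactamase reporter under a cAMP responsive element in CHO cells; compounds tested in titration series against EC10 NKH 477, 3 h at 37 °C. Read-out: CCF4 FRET ratio 460nm/530nm (excitation 405nm) giving %Activity, fitted to AC50.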
Starred values were filed as active, the others as inactive; i = inactive; ? = inconclusive; . = not tested or not shown; [ ] = dose if it differs, or a comment. Unless noted, calls follow the shape of the dose curve; as a rule, active = well fitted curve in the direction sought with a large enough effect; inconclusive = small, poorly fitted or top-dose-only effect, or another doubt; inactive = no such curve, though single readings can be large; an effect the other way counts as inactive or inconclusive. The list is partial, so the mix of outcomes need not match the whole.

[1] C=CCn1c(=O)c2ccccc2n2c(Sc3nnnn3-c3ccccc3)nnc12
[2] COC(=O)c1cn(NC(=O)c2cccnc2)c(=O)c2ccccc12
[3] COc1cccc(CNC(=O)C2CCN(S(=O)(=O)c3cnc[nH]3)CC2)c1
[4] Cc1cccc(S(=O)(=O)NCCC(=O)OC(C)C(=O)NC(=O)NC2CCCCC2)c1 (stereo unspecified)
[5] O=C(CSc1ccc2nnc(-c3ccccn3)n2n1)NCc1ccc2c(c1)OCO2
[6] O=C(COc1ccc(Cl)cc1Cl)Nc1nc2n(n1)C(c1ccccc1)CC(=O)N2 (stereo unspecified)
[7] COc1cccc(-c2cc(C(F)(F)F)nc(N3CCCCC3)n2)c1
[8] N#Cc1c(N)oc(-c2ccco2)c1-c1ccco1

assay / entry	1	2	3	4	5	6	7	8
HBB splice mod	-0.4%	-0.3%	-2.7%	0.1%[57.5 µM]	0.7%	2.0%[0.369 µM]	0.9%	-1.8%
Rhodamine autofl	i	i	i	i	.	i	i	i
Pol III holo inh	0%	-1%	6%	-4%	2%	-8%	-6%	-10%
Tau fil binding	12%	12%	9%	-8%	-7%	36%	-5%	146%
HADH2 inhib	-15%	-8%	-4%	26%	-20%	3%	?	-6%
ALOX15 inhib	4%	5%	1%	5%	25%	-3%	?	25µM*
Texas Red fluor	?	i	i	i	.	i	i	i
ERK AVP inh	-2%	17%	-2%	?	.	-14%	7%	-1%
FLuc inh	-2%	2%	-1%	-9%	3%	2%	4%	0%
CRE-bla Fsk	-10%	1%	7%	-5%	-14%	3%	?	?

[9] CC(C)[C@@H]1O[C@H](/C=C\c2ccccc2)OCC1(C)C
[10] CCCNC(=O)c1c(N)n(-c2cccc(OC)c2)c2nc3ccccc3nc12
[11] CC1CCCN(c2nc3ccccc3nc2C(C#N)C(=O)OC2CCCCC2)C1 (stereo unspecified)
[12] Cc1noc(C)c1CSc1nc2ccccc2c(=O)n1-c1ccccc1
[13] CCCC(=O)Nc1cccc(NC(=O)c2ccc3c(c2)OCO3)c1
[14] O=C(Nc1ccc2c(c1)nc1n2CCOC1)c1ccccc1
[15] COc1cc(Br)c(CC(=O)O)cc1OC
[16] COc1ccccc1C(=O)Nc1ccccc1SC

assay / entry	9	10	11	12	13	14	15	16
HBB splice mod	2.7%[9.22 µM]	-5.0%[57.5 µM]	-0.9%[57.5 µM]	1.0%	-0.5%	1.0%[0.369 µM]	-2.0%	3.8%
Rhodamine autofl	i	i	i	i	i	i	.	i
Pol III holo inh	-1%[11.4 µM]	0%	-1%	3%	-3%	-6%	-2%	-4%
Tau fil binding	-1%[11.4 µM]	12%	5%	10%	5%	-3%	-3%	-4%
HADH2 inhib	12%[11.4 µM]	106%[activator]	?	6%	0%	3%	3%	-9%
ALOX15 inhib	-1%[11.4 µM]	-16%	1%	-26%	2%	-4%	10%	-14%
Texas Red fluor	i	i	?	i	i	i	.	i
ERK AVP inh	1%[11.5 µM]	-23%	-4%	?	11%	-22%	-3%	0%
FLuc inh	0%[11.4 µM]	0%	-2%	1%	-28%	?	2%	-2%
CRE-bla Fsk	-5%[7.6 µM]	?	-9%	10µM*	-6%	4%	-3%	?

[17] CC(C)C(=O)Nc1cccc(C(=O)NCc2ccc(S(N)(=O)=O)cc2)c1
[18] COc1ccc(NC(=O)C2CCCN2S(=O)(=O)c2ccc3c(c2)CCC(=O)N3)cc1 (stereo unspecified)
[19] Cc1noc(C)c1C(=O)NCCc1ccc(Cl)cc1
[20] CCCCC(=O)Nc1nn(C)c2nc3c(C)cccc3cc12
[21] CS(=O)(=O)N1CCC2(CCCN(Cc3ccccc3)C2)CC1
[22] CCCCN(CC)S(=O)(=O)c1ccc(C(=O)Nc2nnc(-c3ccccc3Cl)o2)cc1
[23] CCOC(=O)N1CCN(Cc2cc(=O)oc3ccc4ccccc4c23)CC1
[24] COc1ccc(-c2cc(C(F)(F)F)nc(S(C)(=O)=O)n2)cc1OC

assay / entry	17	18	19	20	21	22	23	24
HBB splice mod	2.2%	-0.3%	-3.2%	2.7%[1.84 µM]	1.7%	-0.7%	2.0%[57.5 µM]	1.6%
Rhodamine autofl	i	.	i	i	i	i	i	i
Pol III holo inh	-4%	-1%	0%	0%	-3%	-2%	-5%	3%
Tau fil binding	-5%	-29%	8%	0%	-6%	6%	7%	-9%
HADH2 inhib	4%	4%	-2%	18%	0%	-8%	7%	?
ALOX15 inhib	7%	-1%	0%	7%	-1%	58%[activator]	-15%	-6%
Texas Red fluor	i	.	i	i	i	i	?	i
ERK AVP inh	-2%	-16%	1%	13%	2%	17%	-3%	-5%
FLuc inh	2%	-4%	1%	3%	0%[11.4 µM]	2%	1%	-1%
CRE-bla Fsk	?	1%	-3%	?	-6%	-7%	6%	?

[25] O=C(NC1CCCCC1)C1CCN(c2nccs2)CC1
[26] C[C@@H](CCC[C@@H]1SC[C@H]2NC(=O)N[C@H]12)C(=O)O
[27] Cc1nnc(SCC(=O)Nc2ccc3c4c(cccc24)CC3)n1C
[28] COc1ccc(CC(=O)c2ccccc2C(=O)O)cc1
[29] CCSC1(SCC)N=C(N)C2(C#N)C(c3ccccc3)NC(C)=C(C)C12C#N (stereo unspecified)
[30] CCCn1c(=O)c2ccccc2n2c(SCCOc3ccc(C)cc3)nnc12
[31] CCN(CC)C(C(=O)Nc1ccc2c(c1)OCO2)c1ccccc1 (stereo unspecified)
[32] CS(=O)(=O)c1ccc(Cn2c3c(c4cc(F)cc(F)c42)CCC[C@H]3CC(=O)O)cc1

assay / entry	25	26	27	28	29	30	31	32
HBB splice mod	-0.2%[57.5 µM]	3.7%[9.22 µM]	0.5%	1.2%[57.5 µM]	-1.0%	-1.3%	1.8%	.
Rhodamine autofl	i	i	.	i	i	i	i	.
Pol III holo inh	-1%	-3%[11.4 µM]	-1%	?	-8%	-15%	2%	-6%
Tau fil binding	12%	8%[11.4 µM]	-12%	4%	-23%	1%	-25%	?
HADH2 inhib	-3%	-1%[11.4 µM]	3%	1%	6%	-16%	-2%	2%
ALOX15 inhib	8%	2%[11.4 µM]	-4%	17%	-6%	-13%	1%	-4%[25.6 µM]
Texas Red fluor	?	i	.	i	i	?	i	.
ERK AVP inh	-21%	1%[11.5 µM]	-7%	-3%	-21%	7%	20%	?
FLuc inh	3%	1%[11.4 µM]	-8%	4%	-3%	-3%	1%	-6%
CRE-bla Fsk	-10%	?	0%	-9%	-4%	?	-5%	-4%

[33] COc1ccc(CSc2nc(N3CCOCC3)c3c(c2C#N)CC(C)(C)OC3)cc1
[34] Cc1ccnc(SCCn2c(N3CCOCC3)nc3c2c(=O)n(C)c(=O)n3C)n1
[35] Oc1c(C(c2cccs2)N2CCN(c3cccc(Cl)c3)CC2)sc2ncnn12 (stereo unspecified)
[36] CCc1nnc(NC(=O)C2CCCN2S(=O)(=O)c2ccc(F)cc2)s1 (stereo unspecified)

assay / entry	33	34	35	36
HBB splice mod	2.7%	-3.1%[57.5 µM]	-0.9%	-0.3%[57.5 µM]
Rhodamine autofl	i	i	.	i
Pol III holo inh	3%	-3%	2%	0%
Tau fil binding	16%	5%	2%	-3%
HADH2 inhib	-3%	?	1%	2%
ALOX15 inhib	-5%	-1%	-4%	8%
Texas Red fluor	?	i	.	?
ERK AVP inh	22%	21%	.	0%
FLuc inh	2%	0%	1%	0%
CRE-bla Fsk	?	-11%	13µM*	-2%

From compound 34 up to 36, as listed above:
[34] Cc1ccnc(SCCn2c(N3CCOCC3)nc3c2c(=O)n(C)c(=O)n3C)n1
[35] Oc1c(C(c2cccs2)N2CCN(c3cccc(Cl)c3)CC2)sc2ncnn12 (stereo unspecified)
[36] CCc1nnc(NC(=O)C2CCCN2S(=O)(=O)c2ccc(F)cc2)s1 (stereo unspecified)

assay / entry	34	35	36
HBB splice mod	-3.1%[57.5 µM]	-0.9%	-0.3%[57.5 µM]
Rhodamine autofl	i	.	i
Pol III holo inh	-3%	2%	0%
Tau fil binding	5%	2%	-3%
HADH2 inhib	?	1%	2%
ALOX15 inhib	-1%	-4%	8%
Texas Red fluor	i	.	?
ERK AVP inh	21%	.	0%
FLuc inh	0%	1%	0%
CRE-bla Fsk	-11%	13µM*	-2%

Bioassay records from PubChem.
